Mtb H37Rv – Mycobacterium tuberculosis H37Rv growth inhibition, putative kinase inhibitor library, confirmatory dose response (AID 2842). M. tuberculosis H37Rv growth inhibition; higher % means a stronger effect; some inactives read as strong as hits. inhibition, % at 10 µg/mL; hits with a dose series show IC90 in µg/mL. actives 5.2% (n = 24,000);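 active = confirmed in a dose series; about a fifth of its hits are not listed in these tables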;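 note: bacteria incubated one week before Alamar blue readout; 0% = bacteria only wells and 100% = bacteria with high antibiotic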
Active calls of the source: *. The list is partial, so the mix of outcomes need not match the whole.

SMILES | Mtb H37Rv
COC(=O)c1ccsc1NC(=O)COc1ccc(Cl)cc1Cl | 4.7%
Cc1cn2c3c(=O)[nH]c(=O)n(C)c3nc2n1CCCl | 5.5%
Cn1c(=O)c2c(nc(N3CCN(C(=O)c4ccco4)CC3)n2CCSc2nc3ccccc3s2)n(C)c1=O | 6.2%
O=C(COc1ccc(Cl)cc1)Nc1c2c(nn1-c1ccc([N+](=O)[O-])cc1)CSC2 | -7.8%
O=C(Nc1nc2c(ccc3ccccc32)s1)c1ccc(S(=O)(=O)N2CCc3ccccc32)cc1 | 6.2%
Cc1ccnc(SCCn2c(N3CCN(C)CC3)nc3c2c(=O)n(C)c(=O)n3C)n1 | 1.3%
COc1ccc(N2CCN(CC(=O)c3ccc(O)c(C)c3O)CC2)cc1 | -10.2%
CCOc1cc(-c2nnc(NC(=O)c3ccccc3Cl)o2)cc(OCC)c1OCC | 1.61µg/mL*
CCOC(=O)c1nn(-c2ccc(F)cc2)c(=O)c2c(NC(=O)c3cc(OCC)c(OCC)c(OCC)c3)scc12 | -10.6%
CN(Cc1ccccc1)c1nc2c(c(=O)[nH]c(=O)n2C)n1CCSc1nc2ccccc2s1 | 77.1%
COc1ccc2nc(Nc3nc(-c4nc5ccccc5s4)cs3)sc2c1 | 13.9%
CN(c1ccccc1)S(=O)(=O)c1c[nH]c(=O)[nH]c1=O | -10.3%
Cc1nnc(N/N=C/C2CC=CCC2)[nH]c1=O (stereo not given) | -2.7%
CCOC(=O)c1nn(-c2ccc(Cl)cc2)c(=O)c2c(NC(=O)c3cccc(F)c3)scc12 | 1.6%
CCc1ccc(NC(=O)c2oc3ccccc3c2NC(=O)C2CC2)cc1 | -0.9%
CCOc1ccc(-c2nnc3ccc(SCC(=O)N4CCC(C)CC4)nn23)cc1 | 10.4%
O=c1[nH]c2ccc(Cl)cc2c(-c2ccccc2)c1C1=NOC(c2ccccc2Cl)C1 (stereo not given) | 31.7%
CCCN1CC2=C(C1=O)C(c1ccc(OC)c(OC)c1)NC(=O)N2 (stereo not given) | -7.5%
CCc1ccc(C(=O)c2cn(Cc3ccc(OC)cc3)c3cc4c(cc3c2=O)OCCO4)cc1 | 83.4%
CCn1c2c(c(=O)[nH]c1=O)C(c1ccc(OC)cc1OC)C1=C(COC1=O)N2 (stereo not given) | 1.9%
O=C(O)c1cccnc1SC1CC(=O)N(c2ccc([N+](=O)[O-])cc2)C1=O (stereo not given) | -13.5%
CCOC(=O)c1nn(-c2ccc(OC)cc2)c(=O)c2c(NC(=O)c3cc(OC)c(OC)c(OC)c3)scc12 | 3.3%
Cc1ccc(C(=O)c2c(N)c(C#N)c3ccccn23)cc1 | -1.0%
N#CC1=C(N)Oc2c(oc(CO)cc2=O)C1c1ccccc1F (stereo not given) | -18.1%
CCCn1c2c(c(=O)[nH]c1=O)C(c1ccc(F)cc1)C1=C(COC1=O)N2 (stereo not given) | -2.5%

Additional structures
SMILES | Mtb H37Rv
Cc1ccc(N2C(=O)C3N=NN(CC(=O)Nc4ccc(F)cc4F)C3C2=O)cc1C (stereo not given) | -7.1%
Cc1ccc(CNc2nccn(-c3cccc(C)c3)c2=O)cc1 | 14.8%
Cc1ccc(NCC(=O)Nc2ncc(Cc3ccccc3Cl)s2)cc1 | -5.9%
O=C(NCc1cccs1)NC1CC(=O)N(c2ccccc2)C1 (stereo not given) | 2.2%
Cc1cc(OC(=O)c2ccc3ccccc3c2)c([N+](=O)[O-])c(=O)[nH]1 | 61.7%
Cc1ccc(-c2ccc3nnc(SCc4ccccn4)n3n2)cc1 | -3.4%
O=[N+]([O-])c1ccc(OCc2nc3ccccc3s2)cc1 | 0.8%
COc1ccccc1C1NC(=O)NC(C)=C1C(=O)Nc1cccc(Cl)c1 (stereo not given) | 15.8%
Nc1nc(SCC(=O)NCc2ccc(F)cc2)[nH]c(=O)c1NC(=O)c1ccc(F)cc1 | -0.3%
Cc1cc(Nc2ccc(C)c(C)c2)n2ncc(-c3ccccc3)c2n1 | 3.44µg/mL*
CC(=O)Nc1c(C(=O)Nc2ccccc2)oc2ccccc12 | -16.2%
Oc1ccc(Br)cc1/C=N/Nc1ncnc2nc[nH]c12 | 3.3%
COc1cc(C(=O)NNc2nc3c(OC)ccc(OC)c3s2)cc(OC)c1OC | -2.6%
CCCCc1ccc2nc(Nc3nc4c(F)cccc4s3)sc2c1 | 43.6%
Cn1c(=O)[nH]c(=O)c2c1nc(N1CCNCC1)n2C/C=C/c1ccccc1 | 1.1%
CCNC(=O)C(=O)Nc1ccc2c(c1)N(S(=O)(=O)c1cccs1)CCC2 | -11.8%
O=C(COc1ccc2ccccc2c1)Nc1c2c(nn1-c1ccc(F)cc1)CS(=O)C2 (stereo not given) | 4.3%
COc1ccc(C(=O)NCCSc2ncc(-c3ccccc3)[nH]2)cc1 | 22.5%
CCCCC(=O)Nc1c(C(=O)Nc2ccc3c(c2)OCCO3)oc2ccccc12 | 1.4%
Cc1ccc2sc(N(CCCn3ccnc3)C(=O)c3ccc(F)cc3)nc2c1C | 3.68µg/mL*
Cn1c(=O)c2c(nc(SCCC(=O)O)n2Cc2ccc(Cl)cc2)n(C)c1=O | -0.4%
COC(=O)CCN1C(=O)/C(=C/c2ccccc2OC)SC1=S | -15.2%
Cc1ccccc1-n1ncc2c(=O)n(CC(=O)Nc3cccc4ccccc34)cnc21 | 2.6%
COc1ccc(C2NC(=S)NC(C)=C2C(=O)Nc2ccc(F)c(F)c2)cc1OC (stereo not given) | 15.0%
Cn1c(=O)c2[nH]c(SCC(=O)c3ccc(Cl)c(Cl)c3)nc2n(C)c1=O | -7.5%

The final 4 records of the part above come first, to join the parts.
SMILES | Mtb H37Rv
COC(=O)CCN1C(=O)/C(=C/c2ccccc2OC)SC1=S | -15.2%
Cc1ccccc1-n1ncc2c(=O)n(CC(=O)Nc3cccc4ccccc34)cnc21 | 2.6%
COc1ccc(C2NC(=S)NC(C)=C2C(=O)Nc2ccc(F)c(F)c2)cc1OC (stereo not given) | 15.0%
Cn1c(=O)c2[nH]c(SCC(=O)c3ccc(Cl)c(Cl)c3)nc2n(C)c1=O | -7.5%
Cc1n[nH]c(=O)nc1N/N=C/c1cccc(O)c1 | 11.0%
CCOC(=O)N1CCN(C(c2cccc(Cl)c2)c2sc3nc(C)nn3c2O)CC1 (stereo not given) | -0.2%
C=CCN1C(=O)/C(=C2\SC(=Nc3ccc(F)cc3)NC2=O)c2ccccc21 | 3.2%
Cc1ccc(-c2ccc3nnc(SCc4cccc(F)c4)n3n2)cc1 | 5.1%
COc1ccc(NC(=O)c2oc3ccccc3c2NC(=O)c2cc3ccccc3oc2=O)c(OC)c1 | 38.0%
Cc1c(O)ccc(C(=O)CN2CCN(Cc3ccc4c(c3)OCO4)CC2)c1O | -12.7%
O=C(Nc1nc(-c2ccc3c(c2)OCO3)cs1)c1cccc(Cl)c1 | 4.1%
COc1ccc(C(=O)Nc2nc(CC(=O)NCc3cccnc3)cs2)cc1OC | -10.1%
COC(=O)c1ccc2c(c1)C1CC(C)(O2)N(c2cccc(C)c2)C(=O)N1 (stereo not given) | -6.7%
Cc1n[nH]c2ncc(C(=O)O)c(=O)n12 | 4.4%
COc1ccc(C(=O)Nc2sc3c(c2C(N)=O)CCCCC3)c(OC)c1 | 24.7%
COc1ccc(CC(=O)NCCc2cc3cc(C)c(C)cc3[nH]c2=O)cc1 | 9.1%
O=C1N/C(=N\c2ccccn2)SC1Cc1ccccc1Cl (stereo not given) | -5.1%
COc1ccc(NC(=O)c2oc3ccccc3c2NC(=O)CC2CCCCC2)cc1 | 0.6%
CC(=O)Nc1ccc(Oc2ncnc3scc(-c4ccc(C)c(C)c4)c23)cc1 | 21.7%
CN(C)c1ccc(C(=O)Nc2nc(-c3ccc(C#N)cc3)cs2)cc1 | 22.1%
Cc1ccc2sc(NNC(=O)c3nc4ccccc4s3)nc2c1C | 3.31µg/mL*
COc1ccc(C(=O)NNc2nc3c(C)cc(C)cc3s2)cc1OC | 78.4%
Cc1ccc(C(=O)Nc2cc(C)c3c(=O)oc4ccccc4c3n2)cc1C | -6.0%
Cc1ccsc1-c1nc(C(N)=O)c2[nH]c(=O)n(-c3ccc(F)cc3)c2n1 | -10.8%
Cn1c(=O)[nH]c(=O)c2c1nc(SCC(=O)OCc1ccccc1)n2Cc1ccccc1Cl | 3.0%
O=C(O)CNc1nc(-c2ccccc2)nc2ccccc12 | 0.6%
CCS(=O)(=O)c1cccc(C(=O)Nc2nc(-c3ccc(Cl)cc3)cs2)c1 | 4.9%
COc1ccc(CC(=O)Nc2cccc(-c3cn4nc(OC)ccc4n3)c2)cc1 | 15.8%
O=C(Nc1nnc(-c2cc(Cl)ccc2Cl)o1)c1ccc2ncsc2c1 | 40.6%

Following part:
SMILES | Mtb H37Rv
COc1ccc(-c2nnc3c4cc5c(cc4n(Cc4cccc(F)c4)cc2-3)OCCO5)cc1OC | 21.9%
Cc1nc2sc(C(c3ccc(Cl)cc3)N3CCN(C(=O)c4ccco4)CC3)c(O)n2n1 (stereo not given) | -7.3%
Cn1c(=O)c2c(nc(SCCN3CCCCC3)n2Cc2ccc(Cl)cc2)n(C)c1=O | -2.2%
CN1CCN(c2nc3c(-c4cccc(F)c4)nnn3c3ccc(Cl)cc23)CC1 | -0.6%
CC(Oc1ccccc1)C(=O)N1CCN=C1SCc1cccnc1 (stereo not given) | 0.8%
O=C(NCc1ccccc1Cl)c1cnc2n(c1=O)CCS2 | -7.1%
O=C(CSc1nc2[nH]ncc2c(=O)[nH]1)Nc1ccccc1F | -2.8%
O=S(=O)(O)c1nc2ccccc2[nH]1 | 11.6%
Cn1c(=O)[nH]c(=O)c2c1nc1n2CCN1Cc1ccccc1 | -3.9%
O=C(CCSc1ccccc1)Nc1nnc(-c2ccco2)o1 | 72.7%
N#Cc1c(/N=C/c2ccccc2O)oc(-c2ccco2)c1-c1ccco1 | -5.9%
O=C(NCc1cccnc1)c1ccc2c(c1)C(=O)c1ccccc1-2 | 9.3%
CC(C)(C)NS(=O)(=O)c1ccc(NC(=O)C(Cl)Cl)cc1 | 9.7%
CC(=O)Nc1ccc(S(=O)(=O)Nc2ccc3c(c2)CCC(=O)N3)c(C)c1 | -10.8%
O=C(Nc1ccc(F)cc1F)c1cn(Cc2ccc(F)cc2)cc2c(=O)n(-c3ccccc3)nc1-2 | 0.8%
CCCOc1ccnc2c1c(=O)n(CC#N)c(=O)n2C | -0.4%
CC(O)Cn1c(N/N=C/c2ccncc2)nc2c1c(=O)[nH]c(=O)n2C (stereo not given) | -4.3%
Cc1ccc2cc(CCNC(=O)COc3ccc(Cl)cc3)c(=O)[nH]c2c1C | 49.2%
COCCNC(=S)NCCc1cc2c(OC)ccc(OC)c2[nH]c1=O | -7.9%
CCCCCCCCn1c(SCC(O)CO)nc2c1c(=O)[nH]c(=O)n2C (stereo not given) | -4.0%
COc1cc(CN2CCNC(=O)C2CC(=O)O)cc(OC)c1 (stereo not given) | -0.6%
O=C(CSc1nnc(-c2cccnc2)o1)c1ccccc1 | -3.2%
CC(C)(C)C(=O)Nc1c(C(=O)Nc2ccc(F)c(Cl)c2)oc2ccccc12 | -0.9%
NC(=O)CSc1ncnc2c1oc1ccccc12 | 8.4%
CCOC(=O)c1nn(-c2ccc(Cl)cc2)c(=O)c2c(NC(=O)COc3ccccc3)scc12 | -4.5%

Part of the list above in another layout:
Compound	Mtb H37Rv
CC(=O)Nc1ccc(S(=O)(=O)Nc2ccc3c(c2)CCC(=O)N3)c(C)c1	-10.8%
O=C(Nc1ccc(F)cc1F)c1cn(Cc2ccc(F)cc2)cc2c(=O)n(-c3ccccc3)nc1-2	0.8%
CCCOc1ccnc2c1c(=O)n(CC#N)c(=O)n2C	-0.4%
CC(O)Cn1c(N/N=C/c2ccncc2)nc2c1c(=O)[nH]c(=O)n2C (stereo not given)	-4.3%
Cc1ccc2cc(CCNC(=O)COc3ccc(Cl)cc3)c(=O)[nH]c2c1C	49.2%

The results go on:
SMILES | Mtb H37Rv
COc1ccc(-n2ccnc(SCC(=O)Nc3ccc(OC)cc3OC)c2=O)cc1 | -5.9%
Cc1cc(C)cc(NC(=O)Cc2csc(NS(=O)(=O)c3ccccc3)n2)c1 | -13.0%
NC(=O)C1Cc2ccccc2N1C(=O)Nc1ccc2c(c1)OCO2 (stereo not given) | 6.2%
Cc1cc(NC(=O)CCS(=O)(=O)c2ccc(F)cc2)no1 | -2.5%
Cc1csc(NC(=O)c2cn(CC3CCCO3)cc3c(=O)n(-c4ccccc4)nc2-3)n1 (stereo not given) | -0.4%
Cc1cccc(Cn2c(N3CCN(Cc4c(F)cccc4Cl)CC3)nc3c2c(=O)[nH]c(=O)n3C)c1 | -3.6%
CCCSc1nc2c(c(=O)[nH]c(=O)n2C)n1C(C)C | 4.5%
O=C(O)c1cccnc1SC1CC(=O)N(c2ccc(Cl)cc2[N+](=O)[O-])C1=O (stereo not given) | -10.0%
Cc1ccc(C2C(C(=O)c3ccc(C)o3)=C(O)C(=O)N2c2ncccn2)cc1 (stereo not given) | -4.8%
COc1ccc(NC(=O)c2cccc(Nc3nc(-c4ccccc4)c4cc(Br)ccc4n3)c2)cc1 | 39.9%
COc1cccc(C2C3=C(COC3=O)Nc3c2c(=O)[nH]c(=O)n3CC(C)C)c1 (stereo not given) | -6.2%
COc1ccc(/C=C2\Oc3cc(OC(=O)N4CCOCC4)ccc3C2=O)cc1 | 0.5%
O=C(Nc1c(C(=O)Nc2ccccc2F)oc2ccccc12)c1cc(Br)ccc1Cl | 0.6%
O=C1NC(=S)NC(=O)C1=Cc1ccc(OC(F)F)cc1 | -7.7%
COc1cccc(-c2nnc(NC(=O)c3ccc(Cl)s3)o2)c1 | <0.2µg/mL*
COc1ccc(C2c3cccn3CCN2C(=O)Nc2ccc(Cl)cc2)cc1 (stereo not given) | 9.87µg/mL*
C=CCn1cnc2c(nnn2-c2ccc(OC)c(OC)c2)c1=O | -1.1%

An excerpt of these results, tab-delimited:
Molecule	Mtb H37Rv
COc1ccc(CC(=O)Nc2cccc(-c3cn4nc(OC)ccc4n3)c2)cc1	15.8%
O=C(Nc1nnc(-c2cc(Cl)ccc2Cl)o1)c1ccc2ncsc2c1	40.6%
